Mtb bLac sens: beta-lactam sensitization of Mtb H37Rv; inhibition, % at 25 µM; AID 434955; 330,000 tested, 0.27% active; M. tuberculosis H37Rv growth with meropenem, percent inhibition; hits of this screen are not shown here;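 active = about 74% or more and at least 40 points above the plate without the antibiotic, then above 30% in a dose series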;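 also: growth measured after seven days incubation then overnight dye step; 0% = bacteria only wells and 100% = bacteria with antibiotic; twin plates without the antibiotic show which effects depend on it; some results filed as inactive read as strong as hits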
Numbers without * were called inactive. An excerpt; the hit share may differ from the screen's.

COc1cc2cc(CCOC(=O)c3ccc(C(F)(F)F)cc3)oc(=O)c2cc1OC
  Mtb bLac sens: 10
O=C1CCCN1C(=O)COc1cc(F)ccc1[N+](=O)[O-]
  Mtb bLac sens: 10
O=C1C=C(c2ccc(C(=O)O)cc2)C[C@@H](c2ccc(F)cc2)C1
  Mtb bLac sens: 2
O=C(CN1C(=O)NC2(CCc3ccccc32)C1=O)Nc1cccc(Cl)c1 (centres undefined)
  Mtb bLac sens: -2
O=C(COc1cccc2cccnc12)Nc1cccc(S(=O)(=O)N2CCCC2)c1
  Mtb bLac sens: 0
Fc1cccc(-c2c(-c3ccccc3)ncc3cc(F)ccc23)c1
  Mtb bLac sens: 4
CCn1c(C)cc(C(=O)CN2C(=O)c3ccccc3S2(=O)=O)c1C
  Mtb bLac sens: -10
CCCC[C@@H]1C=C(C(=O)O)[C@H](c2ccc(Br)cc2)N1S(=O)(=O)c1ccc(C)cc1
  Mtb bLac sens: 8
C[C@@H]1CC2C3CC=C4C[C@@H](O)CC[C@]4(C)C3CC[C@]2(C)[C@H]1O (some centres undefined)
  Mtb bLac sens: -3
CCN1CCN(C(=O)COc2ccc3oc4c(c3c2)CCCC4)CC1
  Mtb bLac sens: 1

CC(=O)Nc1ccc(S(=O)(=O)NCCC(=O)N2CCN(c3ccccc3Cl)CC2)cc1
  Mtb bLac sens: -5
CN1CCC(N(C)S(=O)(=O)c2ccc(NC(=O)c3ccc(S(=O)(=O)N(C)C)cc3)cc2)CC1
  Mtb bLac sens: 3
Cn1c(N)c(C(=O)COC(=O)COc2ccc(Cl)cc2)c(=O)n(C)c1=O
  Mtb bLac sens: -3
C=CCOc1ccc(/C=C/C(=O)OCC(=O)NNC(=O)c2ccccc2F)cc1
  Mtb bLac sens: 41
CC1CCC2(CC1)NC(=O)N(CC(=O)c1cn(CCC#N)c3ccccc13)C2=O (centres undefined)
  Mtb bLac sens: 1
CC1CCCC(C)N1C(=O)COC(=O)c1ccc2ccccc2n1 (centres undefined)
  Mtb bLac sens: 54
CC(C)(C)OC(=O)C[C@H]1C/C=C\C[C@@H](CC(=O)NCCO)C(=O)NC[C@@H](c2ccccc2)OC1=O
  Mtb bLac sens: -5
CC(C)(C)OC(=O)C[C@H]1C/C=C\C[C@@H](CC(=O)NCCO)C(=O)NCCOC1=O
  Mtb bLac sens: 1
C#CCOCCOCCOCCNc1nc(N2CCN(C(=O)[C@H](CCCCN)n3cc(CC(C)O)nn3)CC2)nc(N2CCN(C(=O)[C@H](CCCCN)n3cc(CC(C)O)nn3)CC2)n1 (some centres undefined)
  Mtb bLac sens: -5
COc1cccc(-c2sc3ccccc3c2-c2ccc(OCCN3CCOCC3)cc2)c1
  Mtb bLac sens: 67

COC(=O)C1=C(c2ccc(F)cc2F)C[C@@H]2CC[C@H]1N2C(=O)NC1Cc2ccccc2C1
  Mtb bLac sens: 1
CC1(C)C(=O)CC[C@@]2(C)C1=CCC1C2CC[C@]2(C)C(=O)CCC12 (some centres undefined)
  Mtb bLac sens: -5
CCc1nc2nc(C)c(NS(=O)(=O)c3ccc(Cl)s3)c(=O)n2[nH]1
  Mtb bLac sens: 8
O=C(N/N=C/c1ccc2c(c1)OCO2)C1CC1
  Mtb bLac sens: 5
CCC(CO)Oc1cc(NCc2cc(C)cc(C)c2)c2ncn(C(C)C)c2c1 (centres undefined)
  Mtb bLac sens: 3
C=C1CC[C@@]23CC[C@]4(C)[C@@](OC2=O)([C@@H]3C1)[C@H]1O[C@H]1C1[C@@]2(C)CC[C@H](O)C(C)(C)C2CC[C@]14C (some centres undefined)
  Mtb bLac sens: 5
CC(C)CN(C(=O)CSc1nc2ccccc2o1)c1c(N)n(Cc2ccccc2)c(=O)[nH]c1=O
  Mtb bLac sens: -8
CCCn1nc(C(=O)NC2CCCC2)c2ccccc2c1=O
  Mtb bLac sens: 4
O=C(COC(=O)c1ccc(F)cc1)NCc1ccc(F)cc1
  Mtb bLac sens: -11
CCOc1ccc(S(=O)(=O)NCCC(=O)NCC(c2ccc(OC)cc2)N2CCCC2)cc1 (centres undefined)
  Mtb bLac sens: -4

C[C@@]12C(=O)N(c3ccccc3)C(=O)N1[C@@H]1c3ccccc3OC[C@@H]1[C@H]2c1ccccc1
  Mtb bLac sens: -4
CCOc1ccc(CN(C)C(=O)c2ccc3ccccc3n2)cc1
  Mtb bLac sens: 0
C=C[C@@H]1c2cc(C)ccc2N(S(=O)(=O)c2ccc(C)cc2)[C@H](c2ccccc2)C1(C#N)C#N
  Mtb bLac sens: 1
O=C(NNC(=O)C1CCC1)c1cccc(Cl)c1
  Mtb bLac sens: -2
CC(Sc1nc(N)cc(N)n1)C(=O)NCC1CCCO1 (centres undefined)
  Mtb bLac sens: -1
CCOc1ccc(S(=O)(=O)Nc2ccn(C)n2)cc1
  Mtb bLac sens: -2

As a short view, 12 of the compounds above:
CC1(C)C(=O)CC[C@@]2(C)C1=CCC1C2CC[C@]2(C)C(=O)CCC12 (some centres undefined)
  Mtb bLac sens: -5
CCc1nc2nc(C)c(NS(=O)(=O)c3ccc(Cl)s3)c(=O)n2[nH]1
  Mtb bLac sens: 8
O=C(N/N=C/c1ccc2c(c1)OCO2)C1CC1
  Mtb bLac sens: 5
CCC(CO)Oc1cc(NCc2cc(C)cc(C)c2)c2ncn(C(C)C)c2c1 (centres undefined)
  Mtb bLac sens: 3
C=C1CC[C@@]23CC[C@]4(C)[C@@](OC2=O)([C@@H]3C1)[C@H]1O[C@H]1C1[C@@]2(C)CC[C@H](O)C(C)(C)C2CC[C@]14C (some centres undefined)
  Mtb bLac sens: 5
CC(C)CN(C(=O)CSc1nc2ccccc2o1)c1c(N)n(Cc2ccccc2)c(=O)[nH]c1=O
  Mtb bLac sens: -8
CCCn1nc(C(=O)NC2CCCC2)c2ccccc2c1=O
  Mtb bLac sens: 4
O=C(COC(=O)c1ccc(F)cc1)NCc1ccc(F)cc1
  Mtb bLac sens: -11
CCOc1ccc(S(=O)(=O)NCCC(=O)NCC(c2ccc(OC)cc2)N2CCCC2)cc1 (centres undefined)
  Mtb bLac sens: -4
C[C@@]12C(=O)N(c3ccccc3)C(=O)N1[C@@H]1c3ccccc3OC[C@@H]1[C@H]2c1ccccc1
  Mtb bLac sens: -4
CCOc1ccc(CN(C)C(=O)c2ccc3ccccc3n2)cc1
  Mtb bLac sens: 0
C=C[C@@H]1c2cc(C)ccc2N(S(=O)(=O)c2ccc(C)cc2)[C@H](c2ccccc2)C1(C#N)C#N
  Mtb bLac sens: 1

Assay outcomes from PubChem.
